VDR inh: Inhibitors of the vitamin D receptor (VDR): qHTS; Potency, µM, inactives show max response, negative = inhibition, most hits filed as inhibitors; VDR-SRC2-3 peptide fluorescence polarization, 2 h; 400,000 tested, 0.93% active; Vitamin D3 receptor (Homo sapiens), P11473; active means well fitted inhibition curve with a large enough effect; inconclusive means small, poorly fitted or top-dose-only effect, or another doubt; inactive means no such curve, though single readings can be large or run the other way; further: series mostly up to about 120 µM
Target sequence (P11473 whole entry, looked up): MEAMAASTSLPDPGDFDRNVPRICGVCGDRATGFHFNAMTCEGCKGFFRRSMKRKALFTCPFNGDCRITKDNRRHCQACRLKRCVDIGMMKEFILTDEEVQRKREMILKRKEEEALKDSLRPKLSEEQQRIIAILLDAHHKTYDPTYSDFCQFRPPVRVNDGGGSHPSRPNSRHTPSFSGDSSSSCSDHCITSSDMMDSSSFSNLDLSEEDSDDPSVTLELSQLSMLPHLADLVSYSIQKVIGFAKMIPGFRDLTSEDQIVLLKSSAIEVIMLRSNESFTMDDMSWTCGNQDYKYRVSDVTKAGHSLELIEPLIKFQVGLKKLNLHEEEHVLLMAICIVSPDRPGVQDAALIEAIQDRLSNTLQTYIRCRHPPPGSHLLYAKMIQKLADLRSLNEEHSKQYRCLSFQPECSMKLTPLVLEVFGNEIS
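VDR–SRC2-3 interaction, FP format. Cmpds 23 nl via pintool, brief spin, 2 h ambient incubation.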
Active calls of the source: *; u = inconclusive; & = joins results of further samples. On the % scale 0 is the no-effect control and ±100 the full control effect; potency means the concentration at half of the fitted maximal effect.

VDR inh	structure
22%	CC(C)NC(=O)CC(=O)N/N=C/c1ccccc1F
-12%	C=CCN1CCN(C(=O)CSc2ccccc2)CC1
6%	c1ccc(-c2csc3ncnc(-n4cnc5ccccc54)c23)cc1
-11%	COC(=O)c1ccc(CSc2nc3ccccc3c(=O)n2-c2ccc(OC)c(OC)c2)o1
20%	COc1cccc(NC2=NCCCCC2)c1
12%	CCC(C)NC(=O)CNC(=S)N(Cc1ccc(F)cc1)C1CCCCC1 (stereo not drawn)
5%	O=C(NCCCn1ccnc1)Nc1ccc(Cl)c(Cl)c1
-4%	CCC(C)(C)n1nnnc1C(c1ccc2ncccc2c1)N1CCCC(C)C1 (stereo not drawn)
7%	Cc1ccc(S(=O)(=O)N(C)CC(=O)Nc2ccc(C)cn2)cc1
-12%	Cc1ccc2oc(C(=O)N3CCN(Cc4ncccc4C)CC3)c(C)c2c1
17%	COc1ccc(NC(=O)C2CCC(=O)N2)cc1 (stereo not drawn)
28%	CCOCCCNC(=O)c1c(C)[nH]c(C(=O)OCC)c1C
-3%	O=C(COc1ccccc1Cl)Nc1ccc(S(=O)(=O)N2CCOCC2)cc1
-5%	CCOC(=O)c1c(C)[nH]c(C(=O)Nc2ccc(NC(C)=O)cc2)c1C
2%	Cc1ccc2c(c1)N(CC(=O)NCCCN1CCCC1)C(=O)CO2
-2%	Cc1ccc(C2C=C(c3ccc(Cl)cc3)Nc3nc(NC(=O)CCC(=O)O)nn32)cc1 (stereo not drawn)
-12%	COc1cc(C(=O)NC(=S)NC(C)C)cc(OC)c1OC
-13%	Cc1ccc(N=C2NC(=O)CS2)cc1C
-6%	CCc1ccc([C@@H]2CC=C(C(=O)O)[C@H](c3ccc(F)cc3)N2S(=O)(=O)c2ccc(C)cc2)cc1
4%	O=c1[nH]c(C2CCN(S(=O)(=O)c3ccc(F)cc3)CC2)nc2c1nnn2Cc1ccc2c(c1)OCCO2
-9%	COc1cccc(-n2c(Cc3cc(=O)[nH]c(=O)[nH]3)nnc2SCC(=O)N2CCCCCC2)c1
-7%	CCOc1ccc(C(=O)N2CCN(CCc3ccccn3)CC2)cc1
3%	Nc1nnnn1/N=C/c1cc([N+](=O)[O-])ccc1O
0%	CC(=O)Nc1ccc2cc3ccc(NC(C)=O)cc3nc2c1
-7%	CCOc1ccccc1C(=O)N1CCN(c2cccc(Cl)c2)CC1
-4%	COc1cc2c(cc1OC)-c1n[nH]c(=S)n1C(C)(C)C2
u	Cc1ccc(-c2csc3ncnc(-n4nnc5ccccc54)c23)cc1
-11%	Cc1ccc(C)c(OCC(=O)Nc2ccc(S(=O)(=O)N3CCN(C)CC3)cc2)c1
19%	O=C(Cc1cccs1)NCc1cccc(Cl)c1
5%	c1ccc(Cc2ccc(OCCn3cncn3)cc2)cc1
-8%	CCOc1ccc(C(=O)N(Cc2nc(-c3cccc(C)c3)no2)C(C)C)cc1
6%	CCC(=O)Nc1ccc2c(c1)ncn2-c1ccc(C)cc1
11%	Cc1ccc(NS(=O)(=O)c2cccc(C(=O)NCC3(N(C)C)CCCCC3)c2)cc1
-16%	CCCNC(=O)Cn1c(=O)/c(=C\c2ccc(-c3cccc([N+](=O)[O-])c3)o2)s/c1=C\C(=O)C(C)(C)C
-10%	CCN(CC)CCN(C(=O)c1ccc(S(=O)(=O)N2CCCC2)cc1)c1nc2cc(C)cc(C)c2s1
-19%	CCOC(=O)C1CCCN(C(=O)c2cc3c(Cl)nc4ccccc4c3s2)C1 (stereo not drawn)
-3%	COc1ccc(-c2nc3c(s2)CCc2onc(-c4ccc(Br)cc4)c2-3)cc1
-1%&-6%	Cc1ccc(OCC(=O)N(Cc2ccco2)C2CCS(=O)(=O)C2)cc1 (stereo not drawn)
-16%	Fc1ccc(-c2nnc(CN3CCN(c4ccccn4)CC3)o2)cc1
-20%	O=C(CCC(=O)Nc1ccc(F)cc1)N/N=C/c1ccncc1
-17%	O=C(Cc1csc(Nc2nc(=S)[nH]c3ccccc23)n1)NCc1ccccc1Cl
-4%	CCOCCOC(=O)c1ccc(NC(=O)c2cc(OC)c(OC)c(OC)c2Br)cc1
5%	CCOc1ccc(C(C)=O)cc1CN1C(=O)NC2(CCCCC2C)C1=O (stereo not drawn)
10%	O=C(CSc1ncccn1)Nc1cccc2ccccc12
-18%	O=C(COC(=O)CCCOc1ccccc1)NNC(=O)c1ccc([N+](=O)[O-])cc1
4%	CCC(C(=O)N1CCOCC1)n1c(C(=O)OC)cc2occc21 (stereo not drawn)
2%	CCC(C)(C)NC(=O)/C=C/c1ccc(OC)c(S(=O)(=O)N2CCOCC2)c1
5%	CC1CCCC(NC(=O)COC(=O)c2ccc(S(=O)(=O)N3CCOCC3)cc2)C1C (stereo not drawn)
2%	CC(=O)Nc1ccc(S(=O)(=O)N2CCN(Cc3cccnc3)CC2)cc1
0%	CCC(C)(c1ccc(C(=O)OC)s1)c1ccc(C(=O)OC)s1

(cont.)
VDR inh	structure
-5%	CC(C)c1ccc(C(O)c2cnc(C(C)C)n2C)cc1 (stereo not drawn)
12%	CCn1c(=O)cc(SCC(=O)N2CCN(c3cc(C)ccc3C)CC2)c2ccccc21
-6%	C[C@@H]1CN(S(=O)(=O)C(C)(C)C)[C@@H](CCO)/C1=C\c1ccccc1
-12%	Cc1cccc(NC(=O)C2C3CCCCC32)c1 (stereo not drawn)
-15%	COC(=O)C1=C(C)N(Cc2ccc3c(c2)OCO3)C(=O)C1
16%	Cc1cccc(NS(=O)(=O)c2ccc(C(=O)NCC(C)(C)N3CCOCC3)cc2)c1C
-17%	Cc1ccc(-c2nn(-c3ccccc3)cc2/C=C/C(=O)OCC(=O)NC2CC2)o1
-2%	Cc1ccc(C2=NNC(c3ccc(Cl)cc3)=Nc3ccccc32)o1
11%	Cc1onc(-c2ccccc2)c1-c1nnc(-c2ccccc2C(F)(F)F)o1
u	CCCCCCCCCCS(=O)(=O)N/N=C/c1ccc(O)cc1
-21%	Cn1cc(/C=C2\SC(=S)N(NC(=O)c3ccccc3)C2=O)c2ccccc21
-3%	CC(C)(C)C(=O)Cn1nnc(-c2ccc(C(F)(F)F)cc2)n1
7%	COc1ccc(C(=O)NCc2ccc3c(c2)OCO3)cc1
-18%	COc1cccc(NC(=O)CN(C)C(=O)Cn2c(=O)oc3ccccc32)c1
-11%	O=C(Nc1ccc(Cl)cc1)N1CCOCC1
-1%	COc1ccc([C@H]2CC(=O)C=C(/C=C/c3ccccc3)C2)cc1
-9%	O=C1C2C3C=CC(CC3)C2C(=O)N1/N=C/c1ccco1 (stereo not drawn)
-12%	O=C1CC(N2CCN(c3ncccn3)CC2)C(=O)N1CCc1ccccc1 (stereo not drawn)
11%	COc1ccc(S(=O)(=O)N2CCOCC2)cc1NC(=O)c1ccc(-n2nc(C)cc2C)cc1
3%	CCN(CC)c1ccc(C(=O)N2CCc3c([nH]c4ccccc34)C2c2ccc(F)cc2)cc1 (stereo not drawn)
-17%	Cc1ccc(/C=C2\C(=N)N3N=C(CC(=O)N4CCCCC4)SC3=NC2=O)cc1
-7%	CN(CCC#N)C(=S)Nc1ccc(Oc2ccccc2)cc1
19%	O=S(=O)(Nc1cccc2[nH]ncc12)c1cccs1
-12%	O=c1c(N2CCOCC2)nsn1Cc1ccccc1
4%	O=C(NCCOc1ccccc1)c1cncc(Br)c1

A portion from the list above, for reference:
VDR inh	structure
-5%	CC(C)c1ccc(C(O)c2cnc(C(C)C)n2C)cc1 (stereo not drawn)
12%	CCn1c(=O)cc(SCC(=O)N2CCN(c3cc(C)ccc3C)CC2)c2ccccc21
-6%	C[C@@H]1CN(S(=O)(=O)C(C)(C)C)[C@@H](CCO)/C1=C\c1ccccc1
-12%	Cc1cccc(NC(=O)C2C3CCCCC32)c1 (stereo not drawn)
-15%	COC(=O)C1=C(C)N(Cc2ccc3c(c2)OCO3)C(=O)C1
16%	Cc1cccc(NS(=O)(=O)c2ccc(C(=O)NCC(C)(C)N3CCOCC3)cc2)c1C
-17%	Cc1ccc(-c2nn(-c3ccccc3)cc2/C=C/C(=O)OCC(=O)NC2CC2)o1
-2%	Cc1ccc(C2=NNC(c3ccc(Cl)cc3)=Nc3ccccc32)o1
11%	Cc1onc(-c2ccccc2)c1-c1nnc(-c2ccccc2C(F)(F)F)o1
u	CCCCCCCCCCS(=O)(=O)N/N=C/c1ccc(O)cc1
-21%	Cn1cc(/C=C2\SC(=S)N(NC(=O)c3ccccc3)C2=O)c2ccccc21
-3%	CC(C)(C)C(=O)Cn1nnc(-c2ccc(C(F)(F)F)cc2)n1
7%	COc1ccc(C(=O)NCc2ccc3c(c2)OCO3)cc1
-18%	COc1cccc(NC(=O)CN(C)C(=O)Cn2c(=O)oc3ccccc32)c1
-11%	O=C(Nc1ccc(Cl)cc1)N1CCOCC1

Remaining list, next part.
VDR inh	structure
-17%	Clc1ccc(-c2csc(-c3cccnc3)n2)s1
5%	CCn1c(/C=C/Nc2ccccc2)[n+](CC)c2ccc(C(=O)OCC(F)(F)F)cc21
-19%	O=C(Nc1ccc(N2CCCC2)cc1)c1cc(Br)ccc1Cl
-1%	Cc1ccc(CN/C=C/C(=O)c2ccc(Br)cc2)cc1
3%	COc1cc(/C=N\NC(=O)c2ccc(Cl)cc2)ccc1Oc1ccc([N+](=O)[O-])cn1
-14%	CCCCCC(=O)Nc1ccc(C(=O)COC(=O)CN2C(=O)NC3(CCCC3)C2=O)cc1
2%	C/C(=N\NC(=O)CNC(=O)c1ccccc1F)c1ccco1
-19%	CCOC(=O)C1(Cc2ccc(Cl)cc2)CCN(C(C)Cc2ccc(O)c(OC)c2)CC1 (stereo not drawn)
3%	CCN(CCNC(=O)C1CCN(c2nnc(-n3cccc3)s2)CC1)c1ccccc1
u	NC(=S)NNc1ccc(Cl)c(Cl)c1
-11%	COc1ccc(NC(=O)CNc2ccc(C#N)cc2)cc1
25µM*	CCOC(=O)C1(C)NC(c2ccccc2F)C2C(=O)N(c3cccc(C(C)=O)c3)C(=O)C21 (stereo not drawn)
-7%	O=C(CC1C=CCC1)Nc1ccccc1 (stereo not drawn)
-1%	Cc1ccsc1C(=O)N1CCN(c2ncccn2)CC1
-1%	CN(CCOc1ccc(Cl)cc1)C(=O)c1ccc(S(=O)(=O)N2CCOCC2)cc1
-18%	COc1ccc(CNCc2ccc(OC)c3ccccc23)cc1
-23%	COc1ccc(NC(=O)CSc2nc(-c3ccccc3)cc(-c3cc(OC)c(OC)c(OC)c3)c2C#N)c(OC)c1
-3%	CCOc1ccccc1CNCc1c(C(=O)O)n(Cc2ccc(F)cc2)c2cc(C)ccc12
13%	Cc1c(C)n(Cc2ccc(F)cc2)c2ccc(C(=O)N3CCN(c4ccc(F)cc4)CC3)cc12
10%	O=[N+]([O-])c1ccc(N2CCN(Cc3ccccc3)CC2)s1
4%	CCOc1ccc(OCCOC(=O)C2CCN(S(=O)(=O)c3ccc(C)c(C)c3)CC2)cc1
-3%	CCOC(=O)c1cnc2c(OC)cccc2c1N1CC(C)CC(C)C1 (stereo not drawn)
12%	CN1CCN(CCNC(=O)c2cnn(-c3ccc(F)cc3)c2C2CCN(C(=O)OC(C)(C)C)CC2)CC1
-16%	CC1CC(C)CN(CCCNC(=O)c2ccc(CNS(=O)(=O)c3ccc(F)cc3)cc2)C1 (stereo not drawn)
u	C=CC[C@]12CC=CC(=O)[C@@]1(O)O[C@H](c1ccc(OC)c(OC)c1)[C@H]2C

No new results follow: entries from further up.
VDR inh	structure
-16%	CC1CC(C)CN(CCCNC(=O)c2ccc(CNS(=O)(=O)c3ccc(F)cc3)cc2)C1 (stereo not drawn)
u	C=CC[C@]12CC=CC(=O)[C@@]1(O)O[C@H](c1ccc(OC)c(OC)c1)[C@H]2C

Continued.
VDR inh	structure
u	C=CCOc1ccc(/C=C\c2nc(O)c([N+](=O)[O-])c(=O)[nH]2)cc1OCC
-18%	CC(=O)N/C(=C\c1ccccc1)C(=O)NCC(=O)O
8%	CC(C)C(C(=O)O)N1CCS(=O)(=O)CC1 (stereo not drawn)
6%	Cc1ccc(NC(=O)NC(=O)CSc2n[nH]c(N)n2)c(C)c1
21%	O=C(c1cnn(-c2ccc(Cl)cc2)c1)c1ccccc1O
-4%	O=C(Cn1cnc([N+](=O)[O-])n1)NCc1ccccc1
14%	Cc1cccc(NC(=O)N2CCCCCC2)c1
9%	COc1ccc(OC)c(CC(NC(C)=O)C(=O)NC2CCN(S(=O)(=O)c3ccc(NC(C)=O)cc3)CC2)c1 (stereo not drawn)
-3%	O=C(O)c1ccc(Nc2nc3ccc(Cl)cc3[nH]2)cc1
20%	Cc1ccc(NC(=S)N2CCN(c3ccccn3)CC2)c(C)c1
-6%	O=[N+]([O-])c1ccc(Sc2nccn2Cc2ccccc2)cc1
-6%	Cc1cccc(OCCn2nnc3sc4c(c3c2=O)CCCC4)c1
-11%	COc1ccc(-c2nn(-c3ccccc3)cc2/C=N/O)cc1OC
4%	COc1cc(NC(=O)c2ccc(F)cc2)c(OC)cc1NC(=O)CN1CCOCC1
12%	CCCS(=O)(=O)N1CCN=C1SCc1cccnc1
-12%	COC(=O)c1sccc1NC(=O)CN(C)NS(=O)(=O)c1ccc(F)cc1
6%	O=C(O)c1cc([N+](=O)[O-])ccc1NCc1cccnc1
-7%	CCOc1ccc(C(=O)NCC(=O)N2CCCCCCC2)cc1OCC
8%	COc1ccc(/C(C)=N/NC2=NCCN2)cc1Cl
2%	CC(=O)c1nnn(-c2ccccc2C#N)c1C
4%	O=C(c1cccc(F)c1)N1CCN(c2cc(N3CCCCC3)c(F)cc2[N+](=O)[O-])CC1
-4%	Cc1nnc(NC(=O)C23CC4CC(C)(CC(C)(C4)C2)C3)s1
14%	Cc1cc(C)n2nnnc2c1C#N
11%	O=C(CCc1ccccc1)NC(=S)Nc1cc(C(F)(F)F)ccc1N1CCOCC1
6%	Cc1nnsc1C(=O)Nc1ccc(S(=O)(=O)N2CCCCC2C)cc1 (stereo not drawn)
u	CCOC(=O)C1=C(C)NC(C)=C(C(=O)OCC)C1C
-12%	CCc1nnc(SCc2cn3c(C)cc(C)nc3n2)n1N
-12%	COC(=O)c1cc(-c2c(-c3cc(OC)c(OC)c(OC)c3)noc2C)cc([N+](=O)[O-])c1

This is a subset (hit frequency here may not be typical).
